NPYLR7 agonist – activates Aedes aegypti NPYLR7 receptor; HEK293T NPYLR7/Galpha15, GCaMP6s calcium fluorescence; activation, % at 10 µM; 270,000 tested, 0.15% active; AID 1259423; in the data active = activation above about 40%;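 also: 0% = vehicle and 100% = reference agonist at the receptor; some compounds past the cut are filed as inactive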
NPYLR7 agonist max-min – recorded beside NPYLR7 agonist, whose call it bears; activation, %; measured here: Max-Min RFU normalised activation; some inactives read as strong as hits;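 span of the calcium signal over five minutes; 0% = vehicle and 100% = native peptide agonist; compound fluorescence can raise it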
Active calls of the source: *; & = joins results of further samples. Not all compounds are listed; count on the stated rates, not on these rows.

SMILES	NPYLR7 agonist	NPYLR7 agonist max-min
COCCCN(CC(=O)N(CCOC)Cc1cccn1C)C(=O)Nc1cccc(Cl)c1Cl	-7	-2
COc1cccc(-c2ccccc2NC(=O)C2CCN(Cc3cnc(C)nc3)CC2)c1	8	6
OC(Cc1ccccc1)CN(Cc1ccccc1)Cc1cccs1 (centres undefined)	-2	5
CCN(Cc1cccc(C)c1)CN1C(=O)NC2(CCSCC2)C1=O	15	13
CC(=O)Nc1ccc(Cl)c(C(=O)N(C)CCCN2CCCCCC2)c1	9	4
Cc1noc(-c2cccnc2)c1C(=O)NCCC1(C)OCCO1	-3	4
CC(C)OC(=O)NN(C(=O)OC(C)C)[C@@H]1C=C(C(=O)N[C@H](C)C(N)=O)C[C@@H](O)[C@H]1O	-8	-15
COc1ccc(NC(=O)CN2CC3=C(C2=O)C(c2ccc(C)cc2)NC(=O)N3C)cc1 (centres undefined)	-1	6
COCC(=O)Nc1ccc(N2CCN(C(=O)c3ccccn3)CC2)nc1	-4	12
CCONC(=O)C1CCN(S(=O)(=O)c2ccc(F)cc2)CC1	8	12
COc1ccc(C(=O)NC2(C(F)(F)F)C(=O)NC(C)=C2C#N)c(OC)c1OC (centres undefined)	2	24
O=C(Nc1ccc(SCC(=O)N2CCCC2)nn1)C1CC1	-1	-3
COc1ccc(/C=C/C2Nc3ccccc3C(=O)N2Cc2ccccc2)cc1 (centres undefined)	1	-2
O=S(=O)(CCc1ccncc1)c1ccc(Cl)cc1	2	-1
CCc1cccc(NC(=O)N2CCc3nc(-c4ccccc4)nc(N4CCN(C)CC4)c3C2)c1	26	26
CC(C(=O)NCc1ccc(-n2cncn2)cc1)n1cnc2ccccc21 (centres undefined)	1	-1
Cc1ccc(N=Cc2nc(-c3ccccc3F)oc2O)cc1Cl	-8	-11
CC(=O)Nc1ccc(C(=O)N2C3CCC4(CC3)OC(=O)N(Cc3ccccc3)CC24)cc1 (centres undefined)	31	40
CCCCC(CC)C(=O)Nc1c(-c2ccccc2F)nc2ccc(C)cn12 (centres undefined)	-7	-3
Cc1cc(OCC2CN(C(=O)Cc3ccc(F)cc3)CCO2)ccc1Cl (centres undefined)	3	19

Overlap with the part before: 2 compounds, then new ones.
SMILES	NPYLR7 agonist	NPYLR7 agonist max-min
CCCCC(CC)C(=O)Nc1c(-c2ccccc2F)nc2ccc(C)cn12 (centres undefined)	-7	-3
Cc1cc(OCC2CN(C(=O)Cc3ccc(F)cc3)CCO2)ccc1Cl (centres undefined)	3	19
Cc1cc(N)n(CC(=O)N2CCCC3(CCN(C)C3)C2)n1 (centres undefined)	-4	-6
CSc1ccc(CSc2nnc(-c3ccccc3F)n2C2CC2)cc1	7	4
COc1ccc(S(=O)(=O)N2CCN(c3nccc(-c4cccc(C(F)(F)F)c4)n3)CC2)cc1	3	2
Cc1cccnc1CNC(=O)COc1ccc(Cl)cc1	1	-2
CCOC(=O)c1cn(Cc2cc(C)ccc2C)nc1S(=O)(=O)N1CCCCC1	-9	-11
Cc1ccc(C(=O)NCCn2nc(-c3ccco3)ccc2=O)cc1C	4	1
CC(C)CC(=O)N1CCN(c2cc(Cl)nc(SCC(=O)NC3CC3)n2)CC1C (centres undefined)	8	15
COC(=O)c1ccc(COC(CN2CCN(S(=O)(=O)Cc3ccccc3)CC2)c2ccc(Cl)cc2)cc1 (centres undefined)	-4	-1
Cc1noc(-c2ccc3c(c2)OCO3)c1C(=O)NC(C)CCc1ccccc1 (centres undefined)	17	7
COc1cc(C(=O)N2CCC3(CN(C)C(=O)O3)C2)ccn1 (centres undefined)	0	0
CN1CC2(CCN(Cc3ccc(C(F)(F)F)c(F)c3)C2)OC1=O (centres undefined)	3	3
Cc1oc(-c2cccs2)nc1CN(CC1CC1)CC1CCCO1 (centres undefined)	6	9
O=C(c1ccc(-c2cccc(F)c2)nc1)N1CC[C@H](CO)[C@@H](O)C1	-2	-3
Cc1cc(-n2cnnc2Cc2cccnc2)n(C)n1	-1	-2
CN(Cc1ccccc1Br)C(=O)Nc1ccccc1N1CCCC1=O	6	1
CCc1nc(CN2CCC3(CCCO3)CCC2=O)cs1 (centres undefined)	4	-1
CCOc1cc(Nc2ccc(NC(=O)Nc3ccccc3OC)cc2)nc(C)n1	9	0
COc1cncc(-c2ccc3nnc(-c4cccc(OC(F)(F)F)c4)n3c2)c1	14	5
COc1ccc(C(=O)N2CCN(CC(C)(C)CN3CCCC3)CC2)cc1	7	4
COc1cccc(CNC(=O)CCC2CCCN(Cc3cc4ccccc4s3)C2)c1 (centres undefined)	4	1
COc1cccc(-n2c(=O)[nH]c3c(C(N)=O)nc(-c4ccccc4)nc32)c1	15	4
O=C(NC(C(=O)N1CCCC1)C1CCN(C(=O)CCc2ccccc2)CC1)c1ccc2c(c1)OCO2 (centres undefined)	9	11
O=C(c1cccc(F)c1)N(Cc1nccn1Cc1ccccc1C(F)(F)F)CC1CCCO1 (centres undefined)	6	16
Cc1c(Cl)c(C(F)(F)F)nn1CC(=O)Nc1ccc(Cl)cc1Cl	1	2
O=C(c1ccccc1F)N(Cc1ccccc1OS(=O)(=O)c1ccc(F)cc1)CC1CCCO1 (centres undefined)	10	22
Cn1c(CCC(=O)Nc2ccc(F)cc2)nc2ccccc2c1=O	4	4
O=C(Cn1c2c(c(=O)n3ncnc13)CCCC2)c1ccc(Br)cc1	2	2
Cc1n[nH]c(=O)c(C(=O)Nc2cc(Cl)c(Cl)cn2)c1C	-1	15
COc1ccc(OC)c(N2CCN(C(=O)C(C)C)C(C)C2=O)c1 (centres undefined)	-2	0
COc1ccc(NC(=O)c2ccc3c(c2)CCCC3)c(OC)c1	-7	-9
CC1(Cc2ccc(C(F)(F)F)nc2)C(=O)Nc2ccc(-c3ccc(F)cc3)cc21 (centres undefined)	1	5
O=C(Nc1ccc2c(c1)OCCO2)c1cn2ccccc2n1	4	9
O=C1CC(C(F)(F)C(F)(F)C(F)(F)F)=Nc2ccccc2N1	2	2
Cc1ccccc1CSCc1csc(-c2c(F)cccc2F)n1	3	-2
CC[C@@H]1OC(=O)N2C3CCC(O)(CC3)[C@H]12	36	49
Cc1[nH]cnc1CN1CCC2(CC1)Nc1ccccc1C(=O)N2OCc1ccccc1	0	9
Cc1ccccc1C(C)NC(=O)CSCC1CC1(Cl)Cl (centres undefined)	9	9
OCCC1CN(Cc2ccc(OC(F)F)cc2)CCN1C1CCCC1 (centres undefined)	5	3
CN(C)c1cccc(C(=O)N2CCC(n3c(-c4ccccc4)nc4ccc(F)cc43)CC2)c1	23	18
COc1ccc(C2Oc3ccccc3C=C2[N+](=O)[O-])cc1OC (centres undefined)	21	17
CCOC(=O)C1(CCc2ccccc2)CCN(C(=O)c2cnn3cccnc23)CC1	22&-1	8&2
COC(=O)Cn1c(=NC(=O)c2ccc3ncsc3c2)sc2cc(C(=O)OC)ccc21	1	-1
CCOC(=O)C1(CCOc2ccccc2)CCN(C(=O)c2n[nH]c3c2CCCC3)CC1	12	5
Cc1c(C2Nc3ccccc3C(=O)N2CC(C)C)cc(C#N)n1C (centres undefined)	1	-1
Cc1ccc(-n2ncc3c(=O)[nH]c(SCC(=O)NC(C)C)nc32)cc1	2	1
Cc1sc2ncnc(NCCCO)c2c1C	2	3
O=C(c1cccc2cccnc12)N(Cc1ccsc1)CC1CCCO1 (centres undefined)	5	2
COC(=O)CC1C(=O)NCCN1C(=O)c1nc2ccccc2s1 (centres undefined)	14	8
O=C(c1ccc(CSCc2ccccc2Cl)cc1)N1C2CCC1CC(Oc1ccc(F)cc1F)C2 (centres undefined)	7	-6
O=C(CC1CSc2nccc(=O)n21)N1CCOCC1 (centres undefined)	-1	-1
CCN(Cc1ccc(O)cc1)C(=O)Nc1ccncc1	4	3
COc1ccnc(NCCc2ccc3c(c2)OCO3)n1	-2	-3
CCC(=O)Nc1ccc(OCC(=O)N(C)Cc2sccc2C)cc1	6	5
Cc1cc(C(=O)COC(=O)C=Cc2ccc(Br)o2)c(C)n1C	6	4
CC(C)CCNC(=O)N1CCN(S(=O)(=O)c2ccccc2C#N)CC1	-5	-1
O=C(C1CC1)N(Cc1nccn1Cc1ccc(Cl)c(Cl)c1)C1CC1	-1	7
COc1ccc(-c2cc(C3CC3)nc(SCC(=O)c3ccc(Br)cc3)c2C#N)cc1	-4	-9
N#CCCSc1nnc(-c2cccnc2)n1Cc1ccccc1	11	4
Nc1nnnn1/N=C\c1ccc(OCc2ccc(Cl)cc2Cl)cc1	-15	-21
CCC(C(=O)N1CCC[C@@H]1C(=O)NCCCNC(=O)c1ccccc1)c1ccccc1 (some centres undefined)	29	33

Taken from above.
NPYLR7 agonist with O=C(NC(C(=O)N1CCCC1)C1CCN(C(=O)CCc2ccccc2)CC1)c1ccc2c(c1)OCO2 (centres undefined) reads 9
NPYLR7 agonist max-min with CN1CC2(CCN(Cc3ccc(C(F)(F)F)c(F)c3)C2)OC1=O (centres undefined) reads 3
NPYLR7 agonist max-min with COc1ccc(C2Oc3ccccc3C=C2[N+](=O)[O-])cc1OC (centres undefined) reads 17
NPYLR7 agonist with COc1cccc(-n2c(=O)[nH]c3c(C(N)=O)nc(-c4ccccc4)nc32)c1 reads 15
NPYLR7 agonist with CN(C)c1cccc(C(=O)N2CCC(n3c(-c4ccccc4)nc4ccc(F)cc43)CC2)c1 reads 23

Part of the list above, set out differently.
Compound,NPYLR7 agonist,NPYLR7 agonist max-min
CCC(=O)Nc1ccc(OCC(=O)N(C)Cc2sccc2C)cc1,6,5
CCOC(=O)C1(CCc2ccccc2)CCN(C(=O)c2cnn3cccnc23)CC1,22&-1,8&2
COc1ccc(/C=C/C2Nc3ccccc3C(=O)N2Cc2ccccc2)cc1 (centres undefined),1,-2
O=C(c1ccccc1F)N(Cc1ccccc1OS(=O)(=O)c1ccc(F)cc1)CC1CCCO1 (centres undefined),10,22

Pulled by structure from the list above, 7 records:
SMILES	NPYLR7 agonist	NPYLR7 agonist max-min
O=C(Nc1ccc(SCC(=O)N2CCCC2)nn1)C1CC1	-1	-3
O=C(Cn1c2c(c(=O)n3ncnc13)CCCC2)c1ccc(Br)cc1	2	2
COC(=O)Cn1c(=NC(=O)c2ccc3ncsc3c2)sc2cc(C(=O)OC)ccc21	1	-1
Cc1c(C2Nc3ccccc3C(=O)N2CC(C)C)cc(C#N)n1C (centres undefined)	1	-1
OCCC1CN(Cc2ccc(OC(F)F)cc2)CCN1C1CCCC1 (centres undefined)	5	3
O=C(CC1CSc2nccc(=O)n21)N1CCOCC1 (centres undefined)	-1	-1
CCOC(=O)C1(CCc2ccccc2)CCN(C(=O)c2cnn3cccnc23)CC1	22&-1	8&2

Following part
SMILES	NPYLR7 agonist	NPYLR7 agonist max-min
CC1c2cccn2CCN1Cc1ccc(Sc2nncn2C)o1 (centres undefined)	18	13
CCN1CC(CN(C)CN2C(=O)NC3(CCC(C)CC3)C2=O)Oc2ccccc21 (centres undefined)	-11	-11
O=C1Nc2ccccc2/C1=C/C(=O)c1ccccc1	-5	-13
CCC(c1nc2ccccc2c(=O)n1-c1ccc(Br)cc1)N(CCN(C)C)C(=O)Nc1ccc(Cl)c(Cl)c1 (centres undefined)	32	24
C=C(NN=c1sc2ccccc2n1C)c1cccc(C(F)(F)F)c1	-12	-14
Cc1ccccc1Cn1nc(-c2ccco2)ccc1=O	6	1
O=C(Cn1cnc2c(nnn2Cc2ccc(Cl)cc2)c1=O)NCc1ccc2c(c1)OCO2	4	4
Cc1cc(C(=O)CCC(=O)OCC(=O)c2ccc[nH]2)c(C)s1	1	2
COc1cccc(NC(=O)Cn2c3c(sc2=O)C2c4ccccc4OCC2CS3)c1 (centres undefined)	-6	-9
CCCCc1nc(N2CCN(C(=O)C3CCC3)CC2)c2c(C)nn(-c3ccccc3)c2n1	-5	-2
COc1ccc(CN(CCC(C)C)CC(O)COc2ccccc2C)cc1OC (centres undefined)	18	17
OCc1nc2ccccc2n1CCOc1ccccc1Cl	1	-3
COc1cc(OC)c(C2CC(c3ccc(F)cc3)=Nc3ncnn32)cc1OC (centres undefined)	-3	11
CCCCn1c(-c2ccc(F)cc2C(F)(F)F)nc2ccccc2c1=O	3	0
COc1cc2c(cc1OC)CN(C1CCCN(Cc3cccc(C(C)=O)c3)C1)CC2 (centres undefined)	19	6
CCn1nc(C)c(CNC(=O)C2CCC(=O)N(CCc3ccccn3)C2)c1C (centres undefined)	6&21	7&14
COc1ccc(OC)c(C2c3cccn3-c3ccccc3N2C(=O)CN(C(=O)c2cccc(Cl)c2)C(C)C)c1 (centres undefined)	2	7
CC(C)NC(=O)Nc1ccc(N(C)C)c(CN(C(=O)C(C)(C)C)C2CCCCC2)c1	-6	0
COC(=O)c1sc(N)c(C(=O)OC)c1COC(=O)C1CC=CCC1 (centres undefined)	3	3
Cc1ccc(-c2nc3cnccn3c2NC2CCCCC2)o1	30	26
CC1COc2c(N3CCN(C)CC3)c(F)cc3c(=O)c(C(=O)NC4=NCCS4)cn1c23 (centres undefined)	0	-1
Cc1cccc(-n2ccnc2CN2CCCC(CNC(=O)c3cccc4ccccc34)C2)c1 (centres undefined)	-1	-3
CCN(CC1CCCO1)C(=O)NC1CCc2ccccc21 (centres undefined)	5	2
OC(COCc1ccccc1)CN(Cc1ccc(F)cc1)CC1CC(c2ccc(F)cc2)=NO1 (centres undefined)	0	5
CSc1ccc(-c2csc(NC(=O)c3ccc(S(=O)(=O)N4CCCC4)cc3)n2)cc1	1	5
O=C(N=Nc1c(O)[nH]c2ccccc12)c1cc(-c2ccccc2Cl)n[nH]1	3	-1
CN(C)C(=O)c1cccc(NC(=O)c2ncccc2OCC(F)F)c1	1	565
CN(Cc1cc(Br)ccc1F)C(=O)NCc1ccco1	0	-4
CCN(CC)C(=O)c1cc(NC(=O)c2ccc(Br)cc2)ccc1N1CCCC1	2	4

Screens from PubChem BioAssay.
